WNV protease inh = blocks West Nile virus NS2B-NS3 protease activity. P06935. WNV NS2B-NS3 protease, fluorogenic substrate Ex360/Em465; hits give low values. z-score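 (tested at a level between 10 and 100 µM)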. actives 0.18% (n = 65,000);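 active = z-score at -3 or under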;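 also: score is relative to mean and spread of the compound wells of a plate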
Target sequence (P06935 1371-1501 limits assumed): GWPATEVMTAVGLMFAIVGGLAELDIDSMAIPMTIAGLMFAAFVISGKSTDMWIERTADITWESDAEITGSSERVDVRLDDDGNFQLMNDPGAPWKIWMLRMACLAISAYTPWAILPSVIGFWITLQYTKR
Target sequence (P06935 1502-1679 limits assumed): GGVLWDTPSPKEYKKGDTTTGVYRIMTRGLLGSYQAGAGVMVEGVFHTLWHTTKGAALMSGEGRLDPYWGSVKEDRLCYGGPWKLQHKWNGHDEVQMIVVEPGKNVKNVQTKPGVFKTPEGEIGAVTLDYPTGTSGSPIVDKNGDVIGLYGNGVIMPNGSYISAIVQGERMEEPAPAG
Hsc70 ATP site = Hsc70 inhibitors, probe displacement, primary screen, biochemical, fluorescence polarization (AID 568) | Hsc70 fluorescence polarization, probe displacement; higher % means a stronger effect; strong numbers were not always called active | 83,000 tested, under 10 active | displacement, % at 20 µM, or IC50 in µM where a hit was titrated;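 active = displacement above 50% without optical interference and an IC50 on retest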;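 also: ATPase domain with a fluorescein-tagged ATP probe; 0% = vehicle and 100% = excess ADP; read after one hour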
MT1-MMP promoter = MT1-MMP gene expression reporter suppression – cell-based, luciferase reporter, luminescence (AID 618). MT1-MMP promoter luciferase reporter cells, luminescence. calls from a first round at 10 µM; hits with a dose series show EC50 in µM. actives 0.62% (n = 87,000);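 active = over half of the reporter light lost at 10 µM or EC50 under 50 µM; inactive = the rest and hits that failed the dose series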;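 also: actives suppress MT1-MMP promoter-driven transcription so potencies describe inhibitors; HT1080 fibrosarcoma cells; overnight exposure; toxic or luciferase-blocking compounds were not removed from the actives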
Numbers without * were called inactive; i = inactive; x = no result given; + = active, no number.

SMILES | WNV protease inh | Hsc70 ATP site | MT1-MMP promoter
Cn1c(/C=C/c2ccc([N+](=O)[O-])o2)nc2ccccc2c1=O | x | -23.9% | +
C=CCn1c(SCC(=O)NCc2ccc3c(c2)OCO3)nnc1C1CCCCC1 | -0.56 | 2.8% | i
CSc1nnc(-c2ccccc2)c(=O)[nH]1 | 0.27 | 1.9% | i
CC(NCCc1ccc(O)cc1)C(O)c1ccc(O)cc1 (stereo not given) | 0.24 | 1.0% | i
COc1cc(C(=O)Oc2cc(C)cc(C)c2)cc(OC)c1OC | x | 5.3% | i
Cc1nn(-c2cc(N3CCCCC3)ccc2N)c(=O)c2ccccc12 | 0.19 | 16.6% | i
S=c1nc(-c2ccco2)[nH][nH]1 | x | 2.0% | i
Cc1cc(OCCCCN2C(=O)NC(C)(C)C2=O)cc(C)c1Cl | x | -2.6% | i
CCc1nnc(NC(=O)CCC(=O)N2CCN(Cc3ccccc3)CC2)s1 | -1.53 | 4.7% | i
COc1cccc(NC(=O)N(Cc2ccco2)C(C)c2cccs2)c1 (stereo not given) | -0.54 | 3.0% | i
c1cnc(N2CCN(c3nc4ccccc4n4cnnc34)CC2)nc1 | 0.01 | 5.6% | i
O=C(CCn1[nH]c(=O)c2ccccc2c1=O)OC1CCCCC1 | 0.59 | 2.1% | i
CS(=O)(=O)N(CC(=O)NCc1ccco1)Cc1ccc(Cl)cc1 | -0.1 | 3.0% | i
Cc1cc(=O)[nH]c(SCC(=O)c2ccccc2)c1C#N | 0.16 | -8.8% | i
O=c1c2ccccc2ncn1Cc1nc2ccccc2s1 | -0.91 | -8.1% | i
Cc1cc(C)c2cc(C(c3nnnn3C3CCCC3)N3CCOCC3)c(=O)[nH]c2c1 (stereo not given) | 1.26 | -1.9% | i
COc1cc(C(=S)N(C)C)ccc1O | -1.35 | 5.7% | i
COCCn1cc(C(=O)N2CCCC(C)C2)c2c3ccccc3n(C)c2c1=O (stereo not given) | 0.13 | -7.4% | i
O=C(NCCO)c1c(O)c2cccc3c2n(c1=O)CC3 | 0.37 | 5.0% | i
CC(C)(O)C#CC#CCN1CCOCC1 | -0.49 | 2.2% | i
CCCCCCCOc1ccc(OC(=O)c2ccncc2)cc1 | x | -0.2% | i
O=C(c1ccc2c(c1)OCO2)N1CCc2ccccc2C1 | 1.33 | -1.3% | i
COCCCn1c(SCC(=O)N2CCCC(C)C2)nnc1-c1ccco1 (stereo not given) | 0.38 | 3.1% | i
O=C(Cn1nc(Cc2cccnc2)c2ccccc2c1=O)NCCCN1CCCC1=O | -0.46 | 7.9% | i
O=C(O)c1ccc(Cn2cc(Cl)cn2)cc1 | -0.75 | -2.6% | i
Cn1c(=O)c(=O)n(C)c2cc(S(=O)(=O)N3CCC(N4CCCCC4)CC3)ccc21 | -1.61 | -0.5% | i
CCOC(=O)c1nn(-c2ccc3c(c2)CCN3C(C)=O)cc1O | -1.07 | 1.9% | +
CN(C)CCNC(=O)c1ccc(CS(=O)(=O)c2ccc(Br)cc2)o1 | 0.45 | 4.3% | i
CCS(=O)(=O)n1nc(-c2ccc(C)cc2)nc1N | -0.03 | 2.0% | i
CC(=O)Nc1cccc(NC(=O)CSc2nnnn2Cc2ccccc2)c1 | -0.22 | -8.2% | i
CCc1ccccc1N(C)C(=O)CCc1nc(-c2ccc(C)cc2)no1 | 1.49 | 1.7% | i
O=C(CCc1ccc(S(=O)(=O)N2CCOCC2)cc1)NCCCN1CCCC1=O | 1.01 | 9.4% | i
CCOc1ccc(NC(=O)C2CCC(N3C(=O)C4CC=CCC4C3=O)CC2)cc1 (stereo not given) | 1.29 | -11.2% | i
CCCc1nc2ccccc2c(=O)n1/N=C/c1ccc(O)c(O)c1 | -0.53 | 3.9% | i
O=C(NCc1ccco1)c1c[nH]c2ccc(S(=O)(=O)N3CCOCC3)cc2c1=O | -0.25 | -3.7% | i
Cc1cc2c(c(Sc3ccccc3)n1)C(=O)OC2 | -1.11 | -1.6% | i
COc1ccc(OCC(O)Cn2c(Nc3ccccc3)nc3c2c(=O)n(C)c(=O)n3C)cc1 (stereo not given) | 0.76 | 0.4% | i
CSc1nnc(NC(=O)CCc2ccccc2)s1 | x | -5.4% | i
COc1cc(C(=O)Nc2nc(OC)c(-c3ccccc3)c(OC)n2)cc(OC)c1OC | -1.04 | -4.2% | i
O=C(NCc1ccco1)C1CCCCN1S(=O)(=O)c1ccc(F)cc1 (stereo not given) | 1.01 | 1.9% | i
CC1=CC(=O)C=CC1(C)C(Cl)Cl (stereo not given) | x | 1.6% | i
Cc1ccc(C(=O)/C=C/Nc2ccccc2C(N)=O)o1 | -1.17 | -9.1% | i
C=CCn1c(SCC(=O)Nc2cc(C)on2)nc2sc(C)c(C)c2c1=O | x | 6.2% | i
COc1ccc(OCCCc2c(C)n[nH]c2C)cc1 | x | 3.6% | i
COc1ccc(S(=O)(=O)N2CCCC2C(=O)Nn2cnnc2)cc1 (stereo not given) | -0.37 | 3.6% | i
COCCNC(=O)c1ccc(N2CCCCC2)c(NS(=O)(=O)c2ccc(C)cc2)c1 | -1.15 | -2.5% | i
COC(=O)Cc1c(C)nc2nc(NCc3c(F)cccc3Cl)[nH]n2c1=O | 0.31 | -5.4% | i
O=C(NC1CCN(Cc2ccccc2)CC1)C1CCN(S(=O)(=O)c2cccc3nsnc23)CC1 | -1.98 | 2.8% | i
Cc1cccc(C(=O)O/N=C(\N)Cc2ccc([N+](=O)[O-])cc2)c1 | x | 1.3% | i
CCC(=O)N(CC)c1nc(-c2ccc(OC)cc2)cs1 | 1.31 | 5.0% | i

Reprinted from the part before: 2 compounds; new compounds follow.
SMILES | WNV protease inh | Hsc70 ATP site | MT1-MMP promoter
Cc1cccc(C(=O)O/N=C(\N)Cc2ccc([N+](=O)[O-])cc2)c1 | x | 1.3% | i
CCC(=O)N(CC)c1nc(-c2ccc(OC)cc2)cs1 | 1.31 | 5.0% | i
O=C(NC1CCCC1)C(c1ccc(O)cc1)N(CC1CCCO1)C(=O)C1COc2ccccc2O1 (stereo not given) | -0.9 | 1.5% | i
Cc1ccc2oc(=O)n(CCOc3ccccc3Cl)c2c1 | -0.62 | 3.2% | i
COc1ccc(/C(O)=C2/C(=O)C(=O)N(CCN(C)C)C2c2ccccc2)cc1Cl (stereo not given) | -0.91 | -7.7% | i
O=C(COC(=O)c1ccc(=O)n(Cc2ccccc2)n1)Nc1ccc2c(c1)OCCO2 | -1.6 | 2.6% | i
COc1ccc(NC(=O)CSc2nccn2-c2cccc(OC)c2)cc1 | -0.94 | -3.3% | i
CCN1CCc2c(C#N)c(N3CCOCC3)nc(NCCO)c2C1 | -0.05 | 5.1% | i
COC(=O)c1ccccc1NC(=O)CN1CCC(C(=O)c2ccc3c(c2)OCCO3)CC1 | 0.26 | -0.1% | i
CCOC(=O)c1nc(S(C)(=O)=O)ncc1N1CCOCC1 | -1.14 | 4.3% | i
O=S(=O)(c1ccc(Cl)cc1)c1ccccn1 | -0.24 | 2.0% | i
C=CCOC(=O)C1=C(C)NC(C)=C(C(=O)OCC=C)C1c1ccc(O)cc1 | 0.53 | -7.3% | i

In a second layout: four of the compounds above
> O=C(COC(=O)c1ccc(=O)n(Cc2ccccc2)n1)Nc1ccc2c(c1)OCCO2
  WNV protease inh: -1.6
  Hsc70 ATP site: 2.6%
  MT1-MMP promoter: i

> COc1ccc(NC(=O)CSc2nccn2-c2cccc(OC)c2)cc1
  WNV protease inh: -0.94
  Hsc70 ATP site: -3.3%
  MT1-MMP promoter: i

> CCN1CCc2c(C#N)c(N3CCOCC3)nc(NCCO)c2C1
  WNV protease inh: -0.05
  Hsc70 ATP site: 5.1%
  MT1-MMP promoter: i

> COC(=O)c1ccccc1NC(=O)CN1CCC(C(=O)c2ccc3c(c2)OCCO3)CC1
  WNV protease inh: 0.26
  Hsc70 ATP site: -0.1%
  MT1-MMP promoter: i

Following part:
SMILES | WNV protease inh | Hsc70 ATP site | MT1-MMP promoter
COc1cc(S(=O)(=O)N2CCN(C(=O)c3ccccc3F)CC2)c(OC)cc1NC(C)=O | 1.41 | -7.0% | i
O=C(CSc1n[nH]c(-c2ccco2)n1)N1c2ccccc2Sc2ccccc21 | 0.63 | 5.4% | i
Cc1cc(C)c(S(=O)(=O)N2CCN(c3nc4c(c(=O)n(C)c(=O)n4C)n3C)CC2)c(C)c1 | 0.44 | -1.8% | i
CC(C)N1C(=O)CC(Nc2ccc(N3CCOCC3)cc2)C1=O (stereo not given) | x | -1.2% | i
CCOC(=O)c1c(C)[nH]c(C)c1C(=O)CSc1nnc(-c2ccncc2)n1Cc1ccccc1 | x | 2.2% | i
O=C(Oc1ccc(-c2ccccc2)cc1)N1CCCCC1 | -0.75 | 2.0% | i
CCN1CCN(C(c2cccs2)C(C)NC(=O)c2cccc(OC)c2OC)CC1 (stereo not given) | -0.45 | -2.0% | i
CCN(Cc1nc2ccccc2c(=O)[nH]1)Cc1cc(=O)oc2cc(C)c(C)cc12 | 1.21 | -5.9% | i
N/C(COc1ccc(C(=O)O)cc1)=N\O | -1.14 | -2.0% | i
Cc1noc(C)c1S(=O)(=O)N(C)CC(=O)NCc1ccccc1 | 0.4 | 8.1% | i
CCOC(=O)c1c(N)sc(C(O)(C(F)(F)F)C(F)(F)F)c1-c1ccc(Cl)cc1 | x | -1.2% | i
COc1ccc(C(=O)Nc2nnc(-c3ccco3)s2)cc1 | x | -3.2% | 1.73µM*
Cc1nc2ccccn2c1/C(O)=C1\C(=O)C(=O)N(CCN2CCOCC2)C1c1cccs1 (stereo not given) | 0.45 | 0.1% | i
Nc1nnc(CCOc2ccc(Cl)cc2)s1 | x | 5.1% | i
N#Cc1c(NC(=O)c2ccc(Cn3cc(Br)cn3)o2)sc2c1CCCCCC2 | -0.89 | -9.9% | i
COCCN(CC(=O)Nc1cccc(C)c1)S(=O)(=O)c1ccc(S(=O)(=O)N2CCCC2)cc1 | 0.28 | -1.3% | i
Cc1cc(NC(=O)CSc2nc(C3CC3)nc3sc(C)c(C)c23)no1 | x | 1.3% | i
O=c1[nH]c(SCc2ccccc2Cl)nc2c1cnn2-c1ccccc1 | -0.17 | -6.8% | i
O=C1NCCN1Cc1cccc(Cl)c1 | 0.53 | -5.0% | i
COc1ccc(NC(=O)C(F)(OC)C(F)(F)F)c(OC)c1 (stereo not given) | 0.34 | 0.6% | i
O=C(CCCc1cccs1)Nc1nc2c(s1)CCCC2 | -0.21 | 2.9% | i
CCOc1ccc(CCNC(=O)C2CCCN(S(=O)(=O)c3c(C)n[nH]c3C)C2)cc1OCC (stereo not given) | 0.13 | 2.9% | i
COCCNC(=O)c1ccc2snnc2c1 | x | -0.3% | i
NC(=O)c1cc(-c2ccccc2)nc(N2CCCCCC2)n1 | -0.39 | 6.0% | i
Cc1ccc(-c2nnc3c4ccccc4c(C)nn23)cc1NC(=O)c1ccco1 | 0.12 | -3.7% | i
Cc1n[nH]c(C)c1N1C(=O)c2cccc3c(Br)ccc(c23)C1=O | x | -1.6% | i
COc1ccc(C2C(C(=O)Nc3ccccc3)=C(C)Nc3nc(CCCO)nn32)cc1 (stereo not given) | -1.43 | -4.6% | i
CCCCCn1nc(C)c(/C=N\NC(=O)c2cc(C)oc2C)c1C | x | -3.5% | i
CCOCCn1c(N2CCN(c3ccccc3)CC2)nc2c1c(=O)n(C)c(=O)n2C | 1.64 | 0.1% | i
Cc1cc2nc(C)n(CCCNC(=O)Nc3ccc(F)cc3)c2cc1C | x | 2.7% | i
CC(C)COC(=O)Nc1nnc(SCc2ccccc2F)s1 | x | -7.6% | i
COc1cccc2cc(C(=O)Nc3cccc(C)n3)c(=O)oc12 | -0.47 | -4.2% | i
CCCCn1c(=O)[nH]c2ccccc21 | 0.29 | 0.9% | i
COc1ccc(C(=O)Nc2c(Cl)cc(Cl)cc2C(=O)NCc2ccco2)cc1 | x | 2.7% | i
CN1CCN(C(=O)c2ccccc2NC(=O)c2cccs2)CC1 | 1.11 | 9.3% | i
CC1CCOC2(O1)C(=O)N(CN1CCN(c3cccc(Cl)c3)CC1)c1ccccc12 (stereo not given) | x | 0.8% | i
S=c1nc(-c2ccccc2)n(CCN2CCOCC2)c2c1CCCC2 | -0.89 | -0.3% | i
O=C(c1ncc[nH]1)c1ccco1 | 0.78 | -9.1% | i
CC(C)CNS(=O)(=O)c1ccc(CCC(=O)O)cc1 | -0.17 | 2.9% | i
Cc1ccc(-n2c(CSc3nc(C)cc(C)n3)nnc2SCC(=O)NCc2ccco2)cc1 | 0.02 | -0.2% | i
CCOC(=O)c1c(-c2cccs2)csc1NC(=O)CSc1ncn[nH]1 | 0.54 | -14.2% | i
COc1ccc(C)cc1S(=O)(=O)N(CC(=O)N1CCCC1)c1ccccc1 | -0.58 | -3.8% | i
O=C(NC1CSC/C1=N\O)c1ccccc1 (stereo not given) | -0.16 | 3.9% | i
Cc1cccc(C)c1NC(=O)NC1(C(=O)NCCCN2CCOCC2)CCCCC1 | x | -2.5% | i
CCCOc1ccc(/C(O)=C2\C(=O)C(=O)N(CCCOC)C23C(=O)N(C)c2ccccc23)cc1 (stereo not given) | 0.25 | -4.3% | i
COc1ccc(C(c2nnnn2Cc2ccccc2)N2CCN(c3nc4ccccc4s3)CC2)cc1OC (stereo not given) | x | -20.1% | i
CC(=O)OC(C(=O)NC1CCCCC1)c1ccc(C)cc1 (stereo not given) | 0.42 | -4.7% | i

Some of the compounds tested; rates above refer to the full screens.
